Rce1 inh – inhibitors of yeast Ras-converting enzyme; Q03530; yeast membranes, quenched prenylated peptide cleavage fluorescence; calls only; 0.27% of 290,000 active;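 active = fall in fluorescence gain of 50% or more versus controls, with final raw signal at or below 3038400; inconclusive = same 50% fall but final raw signal above 3038400; inactive = fall in fluorescence gain under 50%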;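 note: plate controls were neutral control wells for no effect and wells lacking membranes for full effect; tested at 10 µM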
Target sequence (Q03530 whole entry, looked up): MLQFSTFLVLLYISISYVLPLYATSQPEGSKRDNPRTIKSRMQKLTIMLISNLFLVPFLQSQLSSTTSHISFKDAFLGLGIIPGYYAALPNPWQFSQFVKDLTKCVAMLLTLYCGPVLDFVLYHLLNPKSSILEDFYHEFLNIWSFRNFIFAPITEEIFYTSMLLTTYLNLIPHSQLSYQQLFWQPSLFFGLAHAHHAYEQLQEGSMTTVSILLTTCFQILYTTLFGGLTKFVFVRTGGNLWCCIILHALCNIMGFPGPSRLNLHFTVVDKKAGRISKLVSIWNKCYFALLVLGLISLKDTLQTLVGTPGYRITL
UUG fidelity – yeast start codon fidelity modulation; 0.13% of 350,000 active; activity score, % at 18.7 µM; AID 602363; S. cerevisiae UUG-firefly luciferase reporter, luminescence/redox ratio;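 active = replicate mean at a twofold rise or more, about +100% in these data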;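 note: firefly luciferase made from a UUG start codon reports start codon fidelity; reporter light over untreated wells divided by growth signal over untreated wells; some hits fall short of that in this replicate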
MT1-MMP act inh – inhibitors of human MT1-MMP activation. P50281. HT1080 RFP-PRO-GFP cells, GFP/RFP ratio fluorescence, overnight; percent of plate control window, DMSO zero. GFP/RFP ratio change, % at 20 µM. 0.061% of 360,000 active. AID 651647;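 active = GFP/RFP ratio change of at least 30% with cell ATP level not reduced by more than half and red fluorescence within 50% of control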; note: strong numbers were not always called active
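Assay system – RFP-PRO-GFP reporter HT1080 cells · Compound dosing – single dose of 20 µM compound, 1% DMSO final · Incubation – overnight compound exposure at 37 °C · Measure – GFP/RFP fluorescence ratio · Benchmarks – DMSO wells and RFP-L50D-GFP cells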
eIF4H FP inh – inhibitors of RNA binding by human eIF4H. Q15056. eIF4H fluorescence polarization binding assay. inhibition, % at 35 µM. 0.94% of 290,000 active. AID 2012;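 active = 50% or more with normal probe brightness, or confirmed in later tests; inconclusive = above 50% with abnormal brightness, or retests that disagree; inactive = below 50% or failed in later tests; about a fifth of its hits are not listed in these tables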;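 note: calls also rest on retests at 20 µM and on dose response follow-up; 0% = protein and probe with vehicle and 100% = probe without protein; strong numbers were not always called active; many hits fall short of the cut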
PABP FP inh – blocks human PABP binding to poly(A) RNA | P11940 | fluorescence polarization | inhibition, % at 35 µM | 1% of 290,000 active;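 active = 50% or more with normal probe brightness, or confirmed in later tests; inconclusive = above 50% with abnormal brightness, or retests that disagree; inactive = below 50% or failed in later tests; about a fifth of its hits are not listed in these tables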;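 note: calls also rest on retests at 20 µM and on dose response follow-up; controls were probe without protein and protein plus probe with vehicle; some compounds called inactive have numbers as strong as hits; many hits fall short of the cut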
HIV Env fusion – blocks HIV Env-driven cell-cell fusion; HeLa-JRFL Env/CEM21 cell fusion, luciferase; inhibition, % at 12.3 µM; 1.1% of 360,000 active;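 active = mean replicate inhibition score of at least 50 and every replicate individually at or above 50; inconclusive = only one of the two criteria met; inactive = mean below 50 and not all replicates reaching 50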;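 note: 0% = plate neutral controls and 100% = maraviroc near 300 nM; one replicate is shown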
CSC inhib – cancer stem cell inhibition. cancer stem cell-like cells viability, luminescence. inhibition, % at 7.5 µM. 1.1% of 300,000 active;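 active = mean at 75% or more and at least half the replicates too; inconclusive = mean and replicates disagree; tested in HMLE shEcad cells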;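 note: 0% = median of negative and 100% = median of positive control wells; the first replicate is given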
MT1-MMP act inh RFP – recorded beside MT1-MMP act inh, whose call it bears; RFP signal change, %; measured here: RFP expression control read;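 0 = vehicle wells; hits needed this value within 50% of zero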
The depositor's hits bear a star; i = inactive; ? = inconclusive; / = not tested or not shown.

Screens in order: Rce1 inh	HIV Env fusion	MT1-MMP act inh	CSC inhib	eIF4H FP inh	MT1-MMP act inh RFP	UUG fidelity	PABP FP inh
CCN(CC)c1ccc(C=C2C(=O)OC(c3ccccc3)OC2=O)cc1 (stereo unspecified)
→ i	-4.8	5.5	-5.9	-0.7	0.5	/	-5.3
Cc1ccc(C)c(NC(=O)CN(C)C(=O)c2cc3c(s2)CCCCC3)c1
→ i	-2.0	2.3	-0.7	/	-1.4	/	/
COc1cc(/C=C/C(=O)OCC(=O)NCCN2C(=O)CSC2=O)ccc1OCC#N
→ /	9.5	-2.0	-1.5	/	2.3	-4.0	/
CC(=O)Nc1cccc(/C(C)=N/Nc2ccc(S(=O)(=O)Nc3ccccc3C(=O)O)cc2[N+](=O)[O-])c1
→ /	-3.1	12.3	/	/	1.6	-3.5	/
O=C(NNc1cccc(Cl)c1)c1cccnc1Oc1ccccc1
→ i	10.4	-1.2	73.2	39.1	-2.4	/	22.9
CC(C)(C)C1CCc2c(sc(NC(=O)c3cccs3)c2C(N)=O)C1 (stereo unspecified)
→ i	/	5.5	-7.9	0.2	-4.4	-19.3	34.2
CCOC(=O)c1c(NC(=O)c2cccs2)sc(CC)c1-c1cccs1
→ i	20.2	-3.0	71.4	0.6	-9.4	-14.3	-6.0
O=c1n(Cc2ccc(F)cc2)nc2n1-c1ccccc1SC2
→ i	-5.7	0.0	0.4	4.4	-5.0	/	0.4
O=C(O)COc1ccccc1/C=N/n1c(C2CCCCC2)n[nH]c1=S
→ i	1.2	3.9	3.3	-3.0	1.8	-14.0	6.8
Cc1cc(C(=O)N2CCc3c([nH]c4ccccc34)C2c2cccc(Cl)c2)nn1C (stereo unspecified)
→ i	-6.7	-3.3	14.7	-11.6	-6.7	/	1.8
O=C(O)C1CCCCC1C(=O)Nc1ccc(-c2ccccc2)cc1 (stereo unspecified)
→ i	-2.6	2.5	-9.3	-2.4	-1.0	/	-2.1
Cc1cc2ncn(CCOc3ccccc3)c2cc1C
→ i	/	4.7	-2.9	1.8	-0.1	-23.8	-2.0
Cc1nc(=S)c2ccccc2[nH]1
→ i	/	4.6	-0.5	4.7	8.0	-7.7	18.2
CN(CCCn1c(=S)[nH]c2ncccc2c1=O)Cc1ccccc1
→ i	-80.5	0.2	4.7	-3.8	3.4	-17.7	-1.7
Cc1cccc(C(=O)N2CCCC(N3CCN(Cc4ccc5c(c4)OCO5)CC3)C2)n1 (stereo unspecified)
→ i	15.4	/	-9.0	7.4	/	-1.1	9.3
Cc1ccc(N=Cc2c(C)[nH]n(-c3ccccc3)c2=O)nc1
→ i	2.6	5.7	13.3	-1.4	3.4	/	0.6
CC(C)NS(=O)(=O)c1ccc(NC(=O)Cc2ccsc2)cc1
→ i	4.8	-1.5	-10.0	0.6	-3.0	-3.7	0.3
CS(=O)(=O)N1CCN(C(=O)c2ccccc2)C1
→ i	-45.4	-2.4	-20.1	5.7	0.7	-18.7	5.5
COc1ccc(-c2cc(C(=O)N3CCN(c4ccc(F)cc4)CC3)no2)cc1OC
→ i	13.3	6.5	-8.1	-10.2	-2.8	-23.2	0.5
COCCNc1nnc(SCC(=O)c2c[nH]c3ccccc23)s1
→ i	19.7	-0.4	-2.6	6.2	-2.7	-3.1	5.4
Cc1ccc(C(O)CCc2ccc(N)cc2)cc1 (stereo unspecified)
→ i	-10.1	-0.7	12.1	0.4	-5.4	-10.4	0.1
CC1CCc2sc(NC(=O)c3ccc(N4C(=O)CCC4=O)cc3)c(C(N)=O)c2C1 (stereo unspecified)
→ i	-1.4	4.3	3.8	1.0	0.9	19.1	5.6
N=C(N)N1CCc2ccccc2C1
→ i	/	/	-8.2	3.8	/	/	-1.0
CC(=O)Nc1ccc(OC(=O)c2c(-c3ccccc3Cl)noc2C)cc1
→ i	5.6	3.4	-5.7	-5.4	-0.2	-11.5	-2.1
CCc1cccc(N(C(=O)c2csnn2)C(C(=O)NC2CCCCC2)c2cccnc2)c1 (stereo unspecified)
→ i	11.9	-0.1	/	15.0	1.5	-3.5	3.0
O=S(=O)(c1ccc2c(c1)CCCN2)N1CCCCC1
→ /	/	-2.5	-13.6	/	-3.3	-8.5	/
O=C(NNC(=O)C1[C@H]2CCCC[C@@H]12)NC1CCCCC1 (stereo partly specified)
→ i	7.9	0.2	-3.1	3.4	4.9	/	-1.3
COc1cccc(C(=O)COC(=O)c2ccc(NC(C)=O)cc2)c1
→ i	-10.0	2.5	-5.3	2.4	3.7	/	-12.4
O=C(CNC(=S)N(Cc1ccccc1)Cc1cccnc1)NCc1ccccc1
→ i	6.9	0.9	-6.3	3.6	-0.4	/	3.7
CN(Cc1cccc(F)c1)C(=O)c1ccc(S(=O)(=O)N2CCCCCC2)cc1
→ /	-47.8	-4.2	-3.6	/	-5.6	-3.8	/

Screens in order: Rce1 inh	HIV Env fusion	MT1-MMP act inh	CSC inhib	eIF4H FP inh	MT1-MMP act inh RFP	UUG fidelity	PABP FP inh
COCCn1c(SCC(=O)N2CCC(C)CC2)nc2c([nH]c3ccccc32)c1=O
→ i	4.3	-3.2	-6.9	-8.4	-1.1	-16.6	4.8
Nc1ccc2nc3c(=O)n(C4CCCCC4)c(=O)[nH]c3nc2c1
→ i	-114.1	-149.2	53.1	?	2.4	/	?
Clc1cccc(CN2CCSCC2)c1
→ i	5.8	1.4	-3.5	4.6	1.1	-24.3	28.4
Brc1ccc2nc(-c3c[nH]c4ccccc34)cn2c1
→ i	-229.2	-2.0	-5.1	11.6	1.5	-20.7	-7.3
O=C(Nc1ccc2c(c1)OCCO2)C1c2ccccc2C(=O)N2CCc3ccccc3C12 (stereo unspecified)
→ i	-2.6	6.2	0.7	6.3	0.0	-12.7	-0.2
CCCS(=O)(=O)N1CCC(CCOc2ccccc2)(C(=O)OCC)CC1
→ i	5.4	-3.2	38.7	-4.1	-6.2	/	-7.2
CC(C)(C)c1cc(=O)n2c(nc3ccccc32)[nH]1
→ /	/	-11.4	-12.5	-1.7	-19.5	-21.2	-1.9
CCCN1Cc2cccc(C(=O)NCc3ccc(C)cc3)c2C1=O
→ i	0.4	-0.3	-11.0	-12.6	3.9	-16.7	-2.9
O=C(CSc1ccc(Cl)cc1)NCc1ccncc1
→ i	1.5	-2.1	3.3	6.0	-0.7	-5.4	-19.1
CC(=O)NCCOc1cccc(OCCNC(C)=O)c1
→ i	26.8	2.0	-16.0	1.3	-0.7	-1.7	12.9
O=C(Oc1cccccc1=O)c1ccccc1
→ i	-0.1	3.4	-8.1	-2.8	3.2	1.4	-1.0
CCN(c1ccccc1)S(=O)(=O)c1ccc(OC)c(NC(=O)c2cc(F)c(F)c(F)c2F)c1
→ /	8.1	-5.2	-7.4	/	-2.3	-22.1	/
COc1ccc(CCc2nnc(CCC(=O)NCCc3ncccc3C)o2)cc1
→ i	-8.8	-0.3	-9.0	3.2	4.5	/	-3.4
Cc1ccc(S(=O)(=O)c2ccccc2)cc1S(=O)(=O)N1CCOCC1
→ i	-10.1	4.0	-17.5	-1.3	4.2	-11.8	-11.8
Cc1ccc(/C=N/NC(=O)Cn2ccc(C(F)(F)F)n2)o1
→ i	-23.3	0.3	13.2	10.6	5.0	/	-3.1
CC1(C)Cc2c(C#N)c(SCCO)nc(N3CCOCC3)c2CO1
→ i	-2.9	-3.5	-12.2	-0.4	-2.5	-7.7	4.2
CC(C)(CO)NC(=O)CC1C(=O)NCCN1CC(c1ccccc1)c1ccccc1 (stereo unspecified)
→ i	-3.4	-0.1	-10.6	-3.0	3.4	/	9.7
O=C(COc1ccccc1)Nc1ccc(F)cc1
→ i	-23.4	1.6	2.6	/	3.2	/	/
Cc1cccc(CNc2ccc(S(=O)(=O)N3CCCCC3)cc2)c1
→ /	-2.5	1.5	/	/	-8.0	-9.0	/
Cc1nn(CC(=O)Nc2ccc(C#N)cc2)c(C)c1[N+](=O)[O-]
→ i	-6.4	-3.3	28.1	-5.5	-2.2	/	15.3
O=C(Nc1ccnn1C1CCN(CCCc2ccccc2)CC1)c1ccccc1Cl
→ i	-2.1	-0.5	-0.3	-7.9	-0.3	-15.0	-10.1
CN1C(=O)/C(=C/c2ccc(C(=O)NC3CCCC3)cc2)Oc2ccccc21
→ i	-8.4	-0.7	2.9	-3.6	-0.4	/	-5.6
CN1CCN(CC(=O)Nc2ccccc2C(F)(F)F)CC1
→ i	2.3	-0.5	-5.9	3.6	3.0	1.0	4.0
COC(=O)c1cc(OC)c(OC)cc1NC(=O)CCN1C(=O)C2CCCCC2C1=O (stereo unspecified)
→ /	8.3	2.3	/	/	4.2	-7.0	/
Cc1cc(O)cc2c1C(c1ccc(F)cc1)CC1(CC(C)(C)NC(=S)N1)O2 (stereo unspecified)
→ i	/	-1.8	9.7	4.4	-11.2	-14.3	-12.5
Cn1c(=O)[nH]c(=O)c2c1nc(NCCCO)n2CCCc1ccccc1
→ i	/	22.2	-14.1	5.9	3.0	-8.2	-4.0
Cc1c(C(=O)NCc2ccc3c(c2)OCCO3)sc(=O)n1Cc1ccc(C(=O)N(C)C)cc1
→ /	5.1	2.0	/	/	-12.8	-14.6	/
O=C(Nc1ccc(NC(=O)C2CCCN2C(=O)OCc2ccccc2)cc1)c1ccco1 (stereo unspecified)
→ i	/	1.7	/	-0.6	-1.3	-1.6	10.2
COc1ccc(-c2nc3ccccc3c(=O)n2CC(C)C)cc1
→ i	0.5	-1.1	-10.3	-14.9	-1.9	4.5	-2.1
Cc1ccc[n+](C(C)C(=O)Nc2ccc(C)c(C)c2)c1 (stereo unspecified)
→ i	-19.2	-0.5	9.7	-4.2	-2.2	-22.8	-5.4

Screens in order: Rce1 inh	HIV Env fusion	MT1-MMP act inh	CSC inhib	eIF4H FP inh	MT1-MMP act inh RFP	UUG fidelity	PABP FP inh
O=C(CSc1ccccc1)Nc1ccccc1N1CCOCC1
→ i	/	-17.1	-10.5	-10.1	-1.1	-17.3	-8.9
NC1=NC2OC(CO)C(O)C2O1 (stereo unspecified)
→ /	-18.7	2.2	/	/	5.7	-14.4	/
CC(C)C1CC(=O)NC(SCC(=O)Nc2ccc(Br)cc2)=C1C#N (stereo unspecified)
→ i	/	17.6	32.2	0.4	-27.1	3.1	0.6
CC(C)C(=O)N1CCN(c2nc3ccc(Cl)cc3s2)CC1
→ i	-23.3	0.0	-23.5	-3.2	-19.4	-7.3	-6.5
O=C(CN(c1ccc(F)cc1)S(=O)(=O)c1ccc2c(c1)OCCO2)Nc1cccnc1
→ /	/	-1.3	-22.3	-5.6	1.7	8.8	-0.5
CC(N)c1csc(Nc2ncccn2)n1 (stereo unspecified)
→ /	-17.9	1.6	/	/	1.9	-17.2	/
C=CCOC(=O)c1ccccc1C(=O)OCC1CO1 (stereo unspecified)
→ /	-1.4	-2.9	/	/	1.2	1.6	/
